# Screening results (PubChem)
# Calb biofilm kill: clotrimazole potentiators killing C. albicans biofilm, primary screen, 4-compound mixtures; inhibition, % at 7.6 µM; AID 1242, 2008; C. albicans biofilm persisters + clotrimazole, fluorescence viability; primary screen in compound mixtures of four per well; actives 0.02% (n = 120,000);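 active = inhibition above 30.3% in the primary screen of four-compound pools, then above 30% when the compound was retested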;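 note: compounds exposed to preformed 24 h biofilms for 48 h; the number belongs to the whole pool; some results filed as inactive read as strong as hits; inactives centre near 12; 0% = biofilm with clotrimazole alone and 100% = kill control; retested singly at about 60 µM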
#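 Incubation: 24 h biofilm formation, then 48 h compound exposure, 37 °C | Material: C. albicans biofilms | Buffer or medium: RPMI/MOPS medium, pH 7.0 | Measured by: 2-h Alamar Blue fluorescence, 535/590 nm excitation/emission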
# The depositor's hits bear a star. A portion of the library. The share of hits here may be higher or lower than overall.
# Start of the listing, in advance:
SMILES	Calb biofilm kill
c1ccc(-c2cnc(SCCN3CCOCC3)n2CC2CCCO2)cc1 (centres undefined)	17
N#C/C(=C\c1cn(-c2ccccc2)nc1-c1ccccc1)S(=O)(=O)c1ccccc1	14
O=C(NCc1ccccc1)c1cc(-c2ccncc2)nc2ccc(S(=O)(=O)N3CCOCC3)cc12	12
CC(=O)c1cccc(N/C=C\C(=O)c2ccc(C)cc2)c1	13
Cc1ccc2nc(-c3cccc(N)c3)[nH]c2c1	3
Cn1ncc(Cl)c1C(=O)NCc1cc(C(C)(C)C)n[nH]1	9
COc1cc(CC(=O)Nc2ccc3c(c2)CCC3)cc(OC)c1OC	14
CC(C)C(=O)n1nc(-c2cccnc2)nc1NCc1cccs1	15
CCC1OC2(C)OC(=N)C1(C#N)C(C#N)(C#N)C2c1ccccc1 (centres undefined)	15
NC(=O)COC(=O)CNC(=O)c1sc2ccccc2c1Cl	6
Cc1ccc(C(=O)COC(=O)c2cccc(N3C(=O)c4c(C)nc5ccccc5c4C3=O)c2)cc1C	6
COc1ccc(CN2CCCC(CNC(=O)c3ccc(F)cc3)C2)cc1OC (centres undefined)	15
COc1ccc(CC(=O)NCCc2ccc(Cl)cc2Cl)cc1	16
Cc1cccc(-n2c(SCC(=O)Nc3cccc(S(=O)(=O)NC4=NCCCCC4)c3)nc3ccccc3c2=O)c1C	12
CCC(=O)Nc1sc2c(c1C(=O)N(C)C)CCCCC2	11

# This part in full, repeating the preview:
SMILES	Calb biofilm kill
c1ccc(-c2cnc(SCCN3CCOCC3)n2CC2CCCO2)cc1 (centres undefined)	17
N#C/C(=C\c1cn(-c2ccccc2)nc1-c1ccccc1)S(=O)(=O)c1ccccc1	14
O=C(NCc1ccccc1)c1cc(-c2ccncc2)nc2ccc(S(=O)(=O)N3CCOCC3)cc12	12
CC(=O)c1cccc(N/C=C\C(=O)c2ccc(C)cc2)c1	13
Cc1ccc2nc(-c3cccc(N)c3)[nH]c2c1	3
Cn1ncc(Cl)c1C(=O)NCc1cc(C(C)(C)C)n[nH]1	9
COc1cc(CC(=O)Nc2ccc3c(c2)CCC3)cc(OC)c1OC	14
CC(C)C(=O)n1nc(-c2cccnc2)nc1NCc1cccs1	15
CCC1OC2(C)OC(=N)C1(C#N)C(C#N)(C#N)C2c1ccccc1 (centres undefined)	15
NC(=O)COC(=O)CNC(=O)c1sc2ccccc2c1Cl	6
Cc1ccc(C(=O)COC(=O)c2cccc(N3C(=O)c4c(C)nc5ccccc5c4C3=O)c2)cc1C	6
COc1ccc(CN2CCCC(CNC(=O)c3ccc(F)cc3)C2)cc1OC (centres undefined)	15
COc1ccc(CC(=O)NCCc2ccc(Cl)cc2Cl)cc1	16
Cc1cccc(-n2c(SCC(=O)Nc3cccc(S(=O)(=O)NC4=NCCCCC4)c3)nc3ccccc3c2=O)c1C	12
CCC(=O)Nc1sc2c(c1C(=O)N(C)C)CCCCC2	11
Cc1nc2ccccc2nc1N/N=C/c1ccc(O)cc1O	17
Cc1noc(C(=O)Nc2cccc(O)c2)c1Cl	15
CC1(C)CC[C@]2(C(=O)O)CC[C@]3(C)C(=CC[C@@H]4[C@@]5(C)CC[C@H](O)C(C)(C)[C@@H]5CC[C@]43C)[C@@H]2C1	22
c1csc(CNc2nc(-c3cccs3)nc3ccccc23)c1	18
CCOc1cc(C(=O)OCC(=O)c2cc(C)n(CC3CCCO3)c2C)ccc1OCC(=O)N1CCOCC1 (centres undefined)	13

# Three structures out of the list, sorted by molecular weight, descending:
SMILES	Calb biofilm kill
Cc1ccc(C(=O)COC(=O)c2cccc(N3C(=O)c4c(C)nc5ccccc5c4C3=O)c2)cc1C	6
COc1ccc(CN2CCCC(CNC(=O)c3ccc(F)cc3)C2)cc1OC (centres undefined)	15
Cc1nc2ccccc2nc1N/N=C/c1ccc(O)cc1O	17

# Later entries:
SMILES	Calb biofilm kill
CC1(C)Cc2ccccc2C(C(Cc2ccccc2)C(N)=O)=N1 (centres undefined)	3
Cc1cc(C)n(CC(O)COc2c(C)cccc2C)n1 (centres undefined)	7
O=C(NCc1ccc2c(c1)OCO2)C(=O)NCC1CCCO1 (centres undefined)	6
O=C(Nc1nccs1)c1csc2c1CCCC2	12
O=c1cc(-c2ccccc2F)nc(-c2ccccc2F)o1	22
COc1ccc(CCN(C)C(=O)CSc2ncnc3sccc23)cc1OC	14
CC(CCc1ccccc1)NC(=O)COC(=O)c1ccccc1O (centres undefined)	9
O=C(N[C@@H](Cc1ccc(O)cc1)C(=O)O)C(c1ccccc1)c1ccccc1	18
Cc1ccc(Nc2ccc(NCc3ccccc3)nn2)cc1C	7
Cc1ccc(N2C(=O)Nc3cc(Cl)c(Cl)cc3N2O)cc1Cl	17
Cc1nc2sc(C(c3ccc(Cl)cc3)N3CCN(CCO)CC3)c(O)n2n1 (centres undefined)	5
COc1cc(C=O)ccc1OCCOc1ccccc1[N+](=O)[O-]	10
Cc1ccc(N2CCN(C(=O)N3CCOCC3)CC2)cc1C	13
O=C(NCc1cn(-c2ccccc2)nc1-c1ccccc1)c1ccc([N+](=O)[O-])cc1	23
O=C(c1ccco1)N1CCN(Cc2nc(-c3cccs3)no2)CC1	8
Cc1cc(NC(=O)CN2CCOCC2)n(-c2ccccc2)n1	19
O=C(Nc1cccc(Br)c1)c1ccccc1-c1ccccc1	5
Cc1ccc(S(=O)(=O)N2CCC(=O)N(CCOC(=O)Nc3ccccc3C)CC2)cc1	13
C/C(=N\N(C)C)C1=C(O)c2ccccc2C1=O	6
Cc1c(NC(=S)NC(=O)C(C)(C)C)cccc1[N+](=O)[O-]	3
CC(=O)Nc1cccc(OCCCNS(=O)(=O)c2ccc(F)cc2)c1	13
CCOC(=O)Nc1cc(NC(=O)OCC)c(C)nc1C	10
CCO[C@H]1OC(C(=O)NCc2nc3ccccc3[nH]2)=C[C@@H](C2CCCCC2)[C@@H]1CCCO	21
CCOc1cccc(=O)c2c(C)n(-c3ccc(C(=O)O)cc3)c(C)c12	10
O=C(NCc1ccccc1)C1=C[C@@H](c2ccc(Br)cc2)C[C@@H](OCc2ccc(CO)cc2)O1	21
COCCN(C(=S)Nc1ccccc1C)C(C)c1cccnc1 (centres undefined)	12
CCOC(=O)C1=C(C)N(C)C(=S)NC1c1cc(OC)ccc1OC (centres undefined)	4
O=C(Nc1ccc(N2CCCCC2)cc1)c1ccc2ccccc2n1	11
COc1ccc2oc(C(=O)OCc3c(C)noc3C)c(C)c2c1	12
Cc1cc(Sc2nc(N)ncc2[N+](=O)[O-])ncn1	3
CN1CCN(c2ccc(Cl)cc2NC(=O)c2ccc(=O)n(C)n2)CC1	21
COc1ccc(C(=O)Nc2cccc(S(C)(=O)=O)c2)cc1OC	19
O=C(N/N=C/C1CC2CCC1C2)c1c[nH]c2ccccc12 (centres undefined)	12
Cc1ccc(-c2c(C)n([O-])c3c([n+]2=O)CCCC3)cc1	16
COc1cnc(-c2ccccc2)nc1OC	6
CCOc1ccccc1NC(=O)NC(=O)N(C)S(C)(=O)=O	11
COc1ccc(NC(=S)N2CCCC2)cc1	22
O=C(/C=C/c1ccccc1)Oc1ccc(C(=S)N2CCOCC2)cc1	22
O=C(NCc1nc2ccccc2[nH]1)C1=C[C@H](c2ccc(Br)cc2)C[C@H](OCc2ccc(CO)cc2)O1	22
CC12CCC(C/C1=N\N=C1\NC(=O)/C(=C\c3ccc(Cl)cc3)S1)C2(C)C (centres undefined)	13
O=C(Nc1nncs1)C(Sc1ccccc1)c1ccccc1 (centres undefined)	14
C/C(Cn1nc([N+](=O)[O-])cc1C)=N\NC(=O)COc1ccccc1[N+](=O)[O-]	-7
COc1ccc(OCCC(=O)NCC23CC4CC(CC(C4)C2)C3)cc1	-28
Cc1cc2nc(CSc3ccccc3)cc(=O)n2[nH]1	9
CC1=CC2=NC(=O)/C(=C\c3cc(C)n(-c4ccccc4F)c3C)C(=N)N2O1	22
Cc1ccccc1CSc1nc(C(C)(C)C)cc(=O)[nH]1	15
N/C(=N\NC(=O)Nc1ccccc1)c1ccccn1	9
COc1ccc(NC(=O)C2CCCN2C(=O)OCc2ccccc2)cc1 (centres undefined)	21
CN1CCN(C2=Nc3cc(Cl)ccc3Nc3ccccc32)CC1	10
COc1ccc(/C=N/NC(=O)c2cccc([N+](=O)[O-])c2)cc1OC	15

# (further entries)
SMILES	Calb biofilm kill
C=CCn1c(=N)n(CC(=O)c2ccc(Br)s2)c2ccccc21	14
O=C(CSc1ncccc1C(=O)O)c1cccc(C(F)(F)F)c1	22
COc1ccc(Nc2nc(NCc3ccco3)nc(N)c2[N+](=O)[O-])cc1	19
CCOC(=O)N1CCC(=NNc2nc3ccccc3s2)CC1	17
CCCNc1ccc(S(=O)(=O)N(C(C)C)C(C)C)cn1	-3
COc1ccc(CONc2ncnc3nonc23)cc1[N+](=O)[O-]	20
Cc1ccc(-c2nc(CN3CCCCC3)cc(CN3CCCCC3)c2O)cc1	11
Cc1nc(C(F)(F)F)ccc1C(=O)N1CCCCC1	9
COc1ccc2c(c1)C(=O)CC(O)(C(F)F)O2 (centres undefined)	25
CCn1c(CSc2ncccn2)nnc1SCC(=O)N1CCCCC1	-11
O=C(N/N=C/c1cccnc1)c1ccc(NC(=O)C(c2ccccc2)c2ccccc2)cc1	21
CC(=O)Oc1oc(-c2ccccc2)nc1C=Nc1ccc(N(C)C)cc1	20
Cc1nn(C)cc1C(=O)Nc1ccccc1Br	-1
O=C(NNc1c2ccccc2nc2ccccc12)C(O)c1ccccc1 (centres undefined)	27
COc1ccc(-n2c(=O)/c(=C\c3cccs3)s/c2=C(/C#N)C(=O)N2CCN(C)CC2)cc1	13
O=C(NCc1ccco1)C(=O)NCC1OCCN1S(=O)(=O)c1ccccc1 (centres undefined)	16
CCCCCCC(C)n1[nH]c(=O)c2c(C)cc(C)nc21 (centres undefined)	-3
Cn1c2c(c(=O)n(C)c1=O)C(CC(=O)Nc1ccccc1F)C(=O)N2 (centres undefined)	16
N#C/C(=N\Nc1ccc(S(=O)(=O)N2CCCCCC2)cc1)C(N)=S	17
COc1ccccc1N(CC(=O)NC1CCCCC1)C(=O)c1csnn1	12
Cc1cc(C)nc(SCc2cc(=O)c(OC(=O)c3cccc([N+](=O)[O-])c3)co2)n1	21
CCOP(=O)(Cc1ccc(C(C)(C)CC(C)=O)o1)OCC	9
CC(C)C(=O)NNS(=O)(=O)c1ccccc1	21
COCCCNC(=S)N(Cc1ccccc1)Cc1nc2ccccc2c(=O)[nH]1	16
NS(=O)(=O)c1ccc(NC(=S)N2CCN(c3ccccc3Cl)CC2)cc1	11
CC1CCCN(S(=O)(=O)c2ccc(Br)s2)C1 (centres undefined)	6
O=C(COC(=O)/C=C/c1ccc(F)cc1)Nc1cc(C(F)(F)F)ccc1N1CCOCC1	17
CC1=NN(c2cccc(C(=O)O)c2)C(=O)/C1=C\C=C/c1ccccc1	10
C(=N\NC(=Nc1ccccc1)c1ccccn1)/c1ccccn1	15
NC(=O)c1c(NC(=O)c2cnccn2)sc2c1CCCC2	7
Nc1ccccc1N1CCN(C(=O)c2ccccc2)CC1	12
Cc1cc(C(=O)Cn2nc(C(=O)O)c3ccccc3c2=O)c(C)n1CCc1ccc(Cl)cc1	0
Cc1cccc(NC(=O)CCCSc2nc3ccccc3[nH]2)c1	9
O=C1C=C(N2CCCCC2)C2(CCCCC2)O1	12
Cc1cc(N/N=C/c2ccc(F)cc2)nc(NCc2ccccc2)n1	13
CC(CCc1ccccc1)NC(=O)COC(=O)C1CCC(C(C)(C)C)CC1 (centres undefined)	11
CC(=O)Nc1ccc(NC(=O)CSc2nnc(CNc3ccc(F)cc3)n2CC2CCCO2)cc1 (centres undefined)	6
COc1ccc2[nH]c(=O)c(CN(C(=O)C3CCCO3)c3ccc(C)c(C)c3)cc2c1 (centres undefined)	17
Nc1c(C(=O)N/N=C/c2ccccc2)cnn1-c1ccccc1	2
CCOC(=O)c1c(NC(=O)Cn2nc(C(F)(F)F)cc2C)sc2c1CCC2	16
CC(=O)c1c(Nc2cccc(F)c2)oc(C)cc1=O	21
CC(=O)c1ccc(N2CCN(C(=O)Nc3ccc(F)cc3F)CC2)cc1	7
COc1ccc(Br)cc1CN(C)CC(=O)NCCc1ccccc1	16
C=CCN=c1scc(-c2ccc3c(c2)NC(=O)CO3)n1/N=C(\C)c1ccccn1	6
COc1cccc(C(=O)Nc2cccnc2)c1OC	12
Cc1ccc2c(C)c(C(=O)NCc3ccc(S(N)(=O)=O)cc3)oc2c1C	25
Cc1cc(C)cc(NC(=O)Cn2cnc3c(nnn3Cc3ccc(F)cc3)c2=O)c1	11
Cc1cccc2nc(CSc3ccc(Cl)cc3)cn12	13
CCOC(=O)C1(C)C=C(Nc2cccc(OC)c2)C(=O)N1c1ccccc1 (centres undefined)	6
COc1ccc(C2=NN(C(=O)CSc3nnc(C)c(=O)n3N)C(c3ccco3)C2)cc1 (centres undefined)	6

# Carrying on:
SMILES	Calb biofilm kill
CCOc1ccc(NC(=O)C2Cc3ccccc3CN2S(=O)(=O)CC)cc1 (centres undefined)	20
CCC12CN3CC(CC)(CN(C1)C3c1ccc([N+](=O)[O-])o1)C2=O (centres undefined)	19
Cc1ccc(-c2nn(-c3ccccc3)cc2/C=C2\SC(=S)N(CC(=O)O)C2=O)cc1	24
COc1ccc(C(=O)Nc2sc3c(c2C(=O)O)CC(C)(C)OC3)cc1	17
Cc1cc(C(C)(C)C)cc(C)c1C(=O)O	22
CCC(CC)C(=O)c1c[nH]c(C(=O)OC)c1	18
N#C/C(=C\Nc1ccc(F)c(Cl)c1)S(=O)(=O)c1ccccn1	18
CN1CCN(c2ccc(CNC(=O)c3ccco3)cc2)CC1	12
CN1CCC(=NNC(=O)CN(c2cccc(Cl)c2)S(C)(=O)=O)CC1	17
